Bioassay records (PubChem BioAssay)
Sa growth inh = S. aureus growth inhibition at 42 and 30 °C, primary screen, LtaS inhibitor project, RN4220, two temperatures; 170,000 compounds, 0.53% hits; AID 720641, 2013; OD600, 20 h, 42 °C; active compounds read low; relative growth, % (no concentration beside the values);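 active means growth at 42 °C up to 50% and 20 or more points under that at 30 °C, or under 10% at both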;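 further: 300 nL library stock went into each well; scaled to the means of positive and negative controls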
GIV-Gai inh = inhibitors of GIV peptide binding to Galpha-i3, primary screen, biochemical, fluorescence polarization, FITC-GIV GBA peptide, rat Galphai3; Guanine nucleotide-binding protein G(i) subunit alpha-3 (Rattus norvegicus), P08753; 90 min; active compounds read low; scaled: aluminum fluoride 0%, vehicle 100%; percent of control (FP), % (concentration not given with the values); 210,000 compounds, 0.42% hits; AID 1224905, 2016;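 active means replicate mean at 85% of control or lower, very high polarization wells dropped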;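 further: wells of about 15 µL received 100 nL stock; the first replicate is given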
Target sequence (P08753 whole entry, looked up): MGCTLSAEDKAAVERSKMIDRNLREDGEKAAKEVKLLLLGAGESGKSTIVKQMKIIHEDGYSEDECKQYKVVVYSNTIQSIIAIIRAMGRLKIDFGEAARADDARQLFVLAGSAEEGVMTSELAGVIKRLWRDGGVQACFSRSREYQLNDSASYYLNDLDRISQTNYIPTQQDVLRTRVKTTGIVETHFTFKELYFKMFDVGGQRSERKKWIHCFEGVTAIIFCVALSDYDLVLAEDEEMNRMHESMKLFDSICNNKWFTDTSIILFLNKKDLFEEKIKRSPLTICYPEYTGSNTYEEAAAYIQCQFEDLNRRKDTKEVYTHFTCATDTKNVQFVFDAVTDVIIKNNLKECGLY
HCMV NEC inh = inhibitors of HCMV UL50-UL53 interaction, biochemical, HTRF | inhibition, % (concentration not given with the values) | AID 1918969, 2023 | 190,000 compounds, 0.15% hits | HCMV UL50-UL53 nuclear egress complex (human cytomegalovirus) | normalized percent inhibition;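 active means both replicates at 50% or more, plus weaker picks with an unusually low signal ratio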;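 further: stock transfer was 100 nL into about 20 µL; 0% = negative control wells and 100% = wells with untagged competitor protein; inactives centre near -12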
Sa growth inh second temp = further read-out of Sa growth inh, marked with its call; relative growth, %; measured here: growth at 30 °C;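 optical density after 20 h as mean of two plates; 100% = untreated growth and lower means inhibition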
Numbers without * were called inactive; nt = no result given; & = joins results of further samples. Compounds were not picked by outcome; overall some 0.83% were active at least once.

SMILES	Sa growth inh	Sa growth inh second temp	GIV-Gai inh	HCMV NEC inh
CC(N)C(=O)OCc1ccccc1 (configuration not stated)	110	87	94	-19
Cc1c(CNCC2CCCO2)c(C(=O)O)c(C)n1Cc1ccc(Cl)cc1 (configuration not stated)	nt	nt	111	-10
Cc1ccc(-c2nnc3c4ccccc4c(C)nn23)cc1NC(=O)c1ccccc1	93	89	108	-23
O=C(Nc1ccc2nc(SCc3ccccc3)sc2c1)c1cccc(F)c1	95	81	102	-31
COc1ccc(NC(=O)c2c(-c3ccccc3)oc3ccc(OC)cc23)cc1	nt	nt	108	6
Cc1ccc(-c2nn3c(-c4ccccc4)nnc3c3ccccc23)cc1	90	92	106	-24
Cc1cc(C)cc(OCCSc2nc3ccc(NC(=O)COc4ccccc4)cc3s2)c1	99	75	101	-10
CCCN1CCN(CCCNC(=O)c2c(C)nn(-c3ccc(F)cc3)c2-n2cccc2)CC1	108	88	102	nt
COc1ccc(Cn2c(=O)[nH]c3cc(C(=O)N4CCN(c5ccc(OC)cc5)CC4)ccc3c2=O)cc1	86	82	99	-22
CCc1c(C)sc(NC(=S)NCc2ccco2)c1C(=O)OC	104	103	104	-2
CCc1ccc2nc(NC(=O)CCc3c(C)noc3C)sc2c1	115	88	nt	3
N#CC1(c2nc3ccccc3[nH]2)Cc2ccccc2N2CCCCC21 (configuration not stated)	116	71	nt	-26
NCCCSc1ccccc1	23	0	nt	-9
Cc1ccc(NC(=O)c2nnn(CC(=O)Nc3ccc(C)c(Cl)c3)c2N)c(C)c1	104	99	112	nt
COc1ccc(C)cc1NC(=O)CSc1nc2ccccc2nc1N1CCOCC1	99	85	105	-39
CC(NC(=O)Nc1ccccn1)N1C(=O)C2C3C=CC(C3)C2C1=O (configuration not stated)	95	89	104	nt
CCC1CCCCN1C(=O)CSC1CCCCC1 (configuration not stated)	120	96	nt	-7
COc1cccc(C(=O)NCC(c2ccc(Br)cc2)c2c[nH]c3ccccc23)c1 (configuration not stated)	nt	nt	104	-19
O=C(COc1ccccc1)Nc1nc2cc3c(cc2s1)OCO3	108	73	102	-17
CC1(c2ccccc2)COC2(OC1)C(=O)N(CN1CCN(Cc3ccccc3)CC1)c1ccccc12 (configuration not stated)	nt	nt	101	-17
CCOc1ccc(C(c2c(O)cc(C)n(CCOC)c2=O)N2CCN(c3ccccc3)CC2)cc1 (configuration not stated)	72	89	101	nt
CC1CC(C)CN(C(=O)c2cc3sc(Cl)cc3n2C)C1 (configuration not stated)	104	68	105	nt
Cc1ccc(C=Nc2ccccc2Sc2c(C)n[nH]c2C)cc1	100	77	102	nt
Cc1ccc(C)c(NC(=O)CCCN2C(=O)C(c3ccccc3)Oc3cccnc32)c1 (configuration not stated)	118	94	100	nt
COC(=O)c1sccc1N/N=C1\C(=O)c2ccccc2N(C)S1(=O)=O	102	104	114	-1
CCOc1ccc(NC(=O)Cn2cccc2)cc1	112	88	104	nt
COCC(=O)Nc1c(C)cc(C)cc1C	110	104	97	-4
O=C1CCCN1CCCN=Cc1c(-c2ccccc2)[nH]n(-c2nc3ccccc3s2)c1=O	nt	nt	103	-26
COc1cccc(-n2c(O)c(C3=c4cc(Br)ccc4=NC3=O)sc2=S)c1	nt	nt	111	-16
COC(=O)C1=C(C)N(C(C)C)C(=O)C1(NC(=O)C1CCCCC1)C(F)(F)F (configuration not stated)	99	101	105	5
CNC(=O)C1CC(=O)N(c2ccc(F)c(Cl)c2)C1 (configuration not stated)	99	77	93	3
Cc1nc2ccc(S(=O)(=O)CCC(=O)Nc3ccc(Cl)cc3)cc2s1	86	74	106	nt
CCOC(=O)C(Cc1ccccc1)C(=O)Nc1nccs1 (configuration not stated)	100	91	108	27
Cc1ccccc1-c1nn2c(=O)cc(CN3CCN(C(=O)c4ccccc4Br)CC3)nc2s1	108	105	95&107	nt
Cc1cc2nc(-c3ccccn3)cc(C(F)(F)F)n2n1	nt	nt	100	-31
CCCNC(=S)N1CCC(NC(=O)Nc2ccc(C)cc2)CC1	102	89	99	-18
CCN(C(=O)C1CCN(S(=O)(=O)c2cc(Br)cc3c2N(C(C)=O)CC3)CC1)c1cccc(C)c1	102	83	103	-16
CCOC(=O)c1cnc2ccc(Br)cc2c1NCCN1CCOCC1	122	91	105	-42
Cc1ccc(C2=NN3C(C2)c2ccccc2OC3c2ccc(OCc3ccccc3)cc2)cc1 (configuration not stated)	nt	nt	101	-2
Cc1cc(C(=O)Sc2ccc(Cl)cc2)nn1C(C)(C)C	25	27	105	-12
Cc1cc(C)nc(NS(=O)(=O)c2ccc(NC(=O)CSc3nc4c(cc3C#N)CCCCC4)cc2)n1	nt	nt	102	28*
CCc1cccc(NC(=O)c2cc3c(=O)n(Cc4ccccc4)ccc3nc2C)c1	89	85	103	nt
Cc1ccc(C)c(C(=O)NCC(C)C)c1	97	95	96	-8
CCN(CC)S(=O)(=O)c1c(C)nn(S(C)(=O)=O)c1C	nt	nt	103	-21
N#CC(=C1SCCCCS1)S(=O)(=O)c1ccccc1	115	78	98	0
Cc1ccc(CNC(=O)CN2C(=O)CSc3c2c(C)nn3-c2ccccc2)cc1	82	92	103	nt
Cc1cc(C)c2[nH]c(=O)c(NC(N)=S)nc2c1	93	88	109	-57
O=C(c1c(-c2ccc(F)cc2)nc2n1CCS2(=O)=O)N1CCCCC1	nt	nt	102	-15
C=CCn1c2ccccc2c2nnc(SCCC(=O)O)nc21	94	96	99	-108
Cc1nn(-c2cc(N3CCOCC3)ncn2)c(C)c1CCC(=O)NCCC1=CCCCC1	nt	nt	99	-11
Cc1noc(C)c1-c1ccc(Cl)c(C(=O)O)c1	95	94	104	-83
CCOC(=O)c1c(NC(C)=O)c2c(C)c(C)sc2n1CC(=O)N1CCCCC1CC (configuration not stated)	nt	nt	103	-6
CC(=O)n1c2ccccc2c2c(-c3ccccc3)c(N3CCOCC3)sc21	90	91	101	nt
COC(=O)c1ccccc1N(C)S(=O)(=O)c1cc2c3c(c1)CC(=O)N3CCC2	112	91	107	nt
CCCCNC(=O)C1=C(C)C(=O)OC12CCCCCC2	90	83	100	-35
Cc1ccc(OCc2cc(=O)n3oc(C)cc3n2)c(NC(=O)COc2cc(C)ccc2C(C)C)c1	nt	nt	99	-9
CC(C)C(=O)NCCc1c[nH]c2ccccc12	121	92	99	-6
Cc1cc(NC(=O)Cn2c(=O)n(CC3CCC(C(=O)NC4CCCC4)CC3)c(=O)c3ccccc32)n[nH]1 (configuration not stated)	80	77	98	-17
CCOc1ccc(C(C)=O)cc1N1C(=O)C2C3C=CC(O3)C2C1=O (configuration not stated)	nt	nt	98	-3
CC(C)N(C(=O)CSc1nc2ccc(S(N)(=O)=O)cc2[nH]1)c1ccccc1	88	86	nt	-14

Other results follow:
SMILES	Sa growth inh	Sa growth inh second temp	GIV-Gai inh	HCMV NEC inh
COC(=O)c1sc2ncccc2c1O	84	92	103	-54
Cn1c(=O)c2c(-c3ccccc3)n3c(c2n(C)c1=O)C(c1c[nH]c2ccccc12)OCC3 (configuration not stated)	nt	nt	96	-10
CCn1c(O)c(N=N)c2ccccc21	90	84	nt	-100
CC(NC1CC2CC=CC21)c1ccc(-n2ccnc2)cc1 (configuration not stated)	82	81	nt	-19
COc1cccc(C(=O)NCC(c2ccc(N(C)C)cc2)N(C)C)c1OC (configuration not stated)	nt	nt	101	-9
COc1ccc(C/C(N)=N/OC(=O)Cc2ccccc2)cc1	110	91	95	-29
CCOC(=O)C(C#N)C(c1ccc(F)cc1)c1ccco1 (configuration not stated)	100	88	120	-10
CCN(CC)C(=O)CSc1nnc(-c2cccnc2)n1-c1ccccc1	106	96	115	16
CCOc1ccc(NC(=O)CC2C(=O)N(c3ccccc3)C(=O)N2CCc2sccc2C)cc1 (configuration not stated)	101	75	102	-14
C(=C\c1ccccc1)/CN1CCN(C/C=C/c2ccccc2)CC1	101	83	103	-26
COc1ccc(OCNC(=O)Nc2nncs2)cc1	87	82	104	-23
Cc1ccc(-c2cn3c4c(=O)n(C)c(=O)n(C)c4nc3n2Cc2ccc(F)cc2)cc1	nt	nt	104	-4
CSc1ccccc1NC(=S)NC1CC1	67	85	nt	-15
Cc1noc(-c2cccnc2NCCc2ccccc2)n1	nt	nt	97	-11
O=C(NCc1ccccc1)c1cc(-c2cccnc2)nc2ccccc12	nt	nt	107	-6
O=C(Nc1ccc2c(c1)OCCO2)c1n[nH]nc1Nc1ccccc1Cl	nt	nt	110	-21
O=C(NCCN1CCN(C(=O)c2ccccc2Cl)CC1)C(=O)NCc1ccccc1	nt	nt	103	-14
Cc1nc(SCc2ccc(C(F)(F)F)cc2)c2c(=O)n(C)c(=O)n(C)c2n1	81	89	102	nt
COCCN(Cc1nnc(-c2cccs2)o1)C(=O)C1CCN(S(=O)(=O)c2ccccc2)CC1	88	93	nt	-14
CCOc1ccc2nc(NC(=O)CN3CCN(S(=O)(=O)c4ccc(F)cc4)CC3)sc2c1	81	96	nt	-18
COc1ccc(-c2nc(Nc3ccc(F)c(Cl)c3)c3ccccc3n2)cc1	nt	nt	110	-14
COC(=O)c1c(-c2ccccc2Cl)noc1C	nt	nt	103	-18
c1ccc(CNc2ccc(-c3nc4ncccc4o3)cc2)nc1	92	81	102	nt
COc1cccc(Cc2nc3ccccc3nc2SCC(=O)Nc2cccc(C)c2)c1	118	99	94	nt
CC(C)N=C1SC(CC(=O)Nc2ccccc2)C(=O)N1C(C)C (configuration not stated)	101	102	110	7
CCOC(=O)c1ccccc1NC(=O)c1nc(-c2ccc(C)cc2)n2c1CCCCC2	104	83	99	nt
Cc1cccc(-c2nc(CS(=O)CC(=O)NCCc3ccccc3)c(C)o2)c1 (configuration not stated)	108	92	101	2
O=C(OCN1C(=O)c2ccccc2C1=O)c1ccc2c(=O)n3c(nc2c1)CCC3	116	96	nt	11
CCOC(=O)C1CCN(c2ncnc3sccc23)CC1	85	85	nt	-5
O=C(CN1CC(=O)N2CCCC2C1=O)NCc1cccc(Cl)c1 (configuration not stated)	nt	nt	102	-5
Cn1c(Cc2cccs2)nnc1SCC(=O)N1CCNC1=O	95	91	nt	-29
CC(=O)n1nc(-c2cccnc2)nc1NCc1ccco1	100	82	102	-6
O=S(=O)(c1ccc(Sc2nnc(-c3cccs3)n2CC2CCCO2)nc1)N1CCCC1 (configuration not stated)	77	89	nt	-8
CCCCC(=O)Nc1ccc2[nH]c(=O)oc2c1	106	97	100	-14
CC(C)(O)c1nnn(Cc2ccccc2)c1C(C)(C)O	89	93	nt	7
Cc1oc(-c2ccno2)cc1S(=O)(=O)Nc1ccc(Cl)cn1	nt	nt	109	-22

Among those listed so far, 11 contain a thiophene ring, fused or not:
SMILES	Sa growth inh	Sa growth inh second temp	GIV-Gai inh	HCMV NEC inh
CCc1c(C)sc(NC(=S)NCc2ccco2)c1C(=O)OC	104	103	104	-2
CC1CC(C)CN(C(=O)c2cc3sc(Cl)cc3n2C)C1 (configuration not stated)	104	68	105	nt
COC(=O)c1sccc1N/N=C1\C(=O)c2ccccc2N(C)S1(=O)=O	102	104	114	-1
CCOC(=O)c1c(NC(C)=O)c2c(C)c(C)sc2n1CC(=O)N1CCCCC1CC (configuration not stated)	nt	nt	103	-6
CC(=O)n1c2ccccc2c2c(-c3ccccc3)c(N3CCOCC3)sc21	90	91	101	nt
COC(=O)c1sc2ncccc2c1O	84	92	103	-54
CCOc1ccc(NC(=O)CC2C(=O)N(c3ccccc3)C(=O)N2CCc2sccc2C)cc1 (configuration not stated)	101	75	102	-14
COCCN(Cc1nnc(-c2cccs2)o1)C(=O)C1CCN(S(=O)(=O)c2ccccc2)CC1	88	93	nt	-14
CCOC(=O)C1CCN(c2ncnc3sccc23)CC1	85	85	nt	-5
Cn1c(Cc2cccs2)nnc1SCC(=O)N1CCNC1=O	95	91	nt	-29
O=S(=O)(c1ccc(Sc2nnc(-c3cccs3)n2CC2CCCO2)nc1)N1CCCC1 (configuration not stated)	77	89	nt	-8
